Screening results from PubChem.
PV pol inh: inhibitors of poliovirus RNA polymerase binding and polymerization | 150,000 compounds, 0.66% hits | P03300 | poliovirus polymerase elongation, fluorescence polarization; active compounds read low | AID 588519 | % elongation, % (compound at 16.7 µg/mL); in the data active means % elongation below about 90%; further: some results filed as inactive read as strong as hits
Mtb MbtI inh: blocks the Mycobacterium tuberculosis siderophore enzyme MbtI | purified MbtI enzyme, fluorescence intensity read-out | AID 493033 | P9WFX0 | 100,000 compounds, 0.89% hits | inhibition, %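 (about 17 µg/mL by stock and volumes)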;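 active means above 50% in both replicates, above 80% if mildly self-fluorescent; inactive means the rest, strongly fluorescent compounds included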;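 further: 0% = mean of negative and 100% = mean of positive controls; one replicate is shown; some compounds called inactive have numbers as strong as hits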
Target sequence (P9WFX0 whole entry, looked up): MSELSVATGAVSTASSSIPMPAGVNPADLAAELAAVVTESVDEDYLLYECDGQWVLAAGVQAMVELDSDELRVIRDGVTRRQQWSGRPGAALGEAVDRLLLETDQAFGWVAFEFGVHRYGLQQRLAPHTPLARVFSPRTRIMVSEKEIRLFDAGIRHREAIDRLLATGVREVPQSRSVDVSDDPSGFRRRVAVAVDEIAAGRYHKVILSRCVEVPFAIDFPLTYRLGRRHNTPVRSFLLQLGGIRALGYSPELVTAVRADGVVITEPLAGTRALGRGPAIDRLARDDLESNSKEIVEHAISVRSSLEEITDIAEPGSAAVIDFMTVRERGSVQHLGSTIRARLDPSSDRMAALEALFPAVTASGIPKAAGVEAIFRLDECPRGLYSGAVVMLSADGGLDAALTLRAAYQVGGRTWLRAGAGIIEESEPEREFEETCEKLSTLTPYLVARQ
Mtb MenB inh: inhibitors of Mycobacterium tuberculosis MenB enzyme; P9WNP5; MenB enzyme assay, absorbance read-out; some hits fall short of the stated cut; inhibition, %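 (about 12 µg/mL by stock and volumes)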; 100,000 compounds, 0.43% hits; AID 540299;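 active means mean of two replicates above 30%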;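 further: 0% = no compound and 100% = wells with inactive enzyme; the first replicate is given; strong numbers were not always called active; inactives centre near -10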
Target sequence (P9WNP5 whole entry, looked up): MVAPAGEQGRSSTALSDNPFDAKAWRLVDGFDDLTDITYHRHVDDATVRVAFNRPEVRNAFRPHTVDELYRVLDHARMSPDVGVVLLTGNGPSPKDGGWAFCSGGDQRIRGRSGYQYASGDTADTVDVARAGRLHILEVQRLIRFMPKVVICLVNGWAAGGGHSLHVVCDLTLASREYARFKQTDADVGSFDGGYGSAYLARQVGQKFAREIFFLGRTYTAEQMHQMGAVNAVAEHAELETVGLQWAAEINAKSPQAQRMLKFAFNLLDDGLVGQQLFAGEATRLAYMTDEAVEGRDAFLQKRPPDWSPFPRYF
PV pol inh intensity: further read-out of PV pol inh, marked with its call; % elongation; measured here: total intensity read-out; formula for this scale not given here;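 total fluorescence in place of polarization; lower means less elongation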
Active calls of the source: *; i = inactive; . = not tested or not shown; & = joins results of further samples.

SMILES	PV pol inh	PV pol inh intensity	Mtb MbtI inh	Mtb MenB inh
Cc1sc2nc(CSC(C)C(=O)Nc3ccc(N4CCN(C)CC4)cc3)[nH]c(=O)c2c1C (configuration not stated)	100	105	28	-1
CCC(=O)Oc1c(S(=O)(=O)c2ccccc2)c(C)nn1C(C)(C)C	101	104	-2	-6
O=C(NCCC1=CCCCC1)c1c(O)nc2ccccn2c1=O	101	104	0	-11
CS(=O)(=O)c1cccc(C(=O)Oc2ccccc2)c1	96	98	12	-8
CC1CCc2nc(NC(=S)NCc3ccco3)sc2C1 (configuration not stated)	97	102	-5	-7
O=C(Nc1cc(C(=O)N2CCOCC2)ccc1N1CC2CC(C1)c1cccc(=O)n1C2)c1ccc(Br)o1 (configuration not stated)	104	103	1	-16
CC(=O)NC(Cc1ccc(F)cc1)C(=O)OCc1ccccc1 (configuration not stated)	105	110	.	-4
CCCc1cc(=O)[nH]c(SCC(=O)N2CCN(S(=O)(=O)c3ccccc3)CC2)n1	100	108	2	16
CC1(C)CC(N2CCC(O)(c3ccccc3)C(C(=O)c3ccccc3)C2)CC(C)(C)N1 (configuration not stated)	104	104	.	-8
O=C(COc1ccc(NS(=O)(=O)c2cccc3cccc(Cl)c23)cc1)N1CCOCC1	100	101	.	-28
CC(CC(=O)NCc1cccs1)CC1=NS(=O)(=O)c2ccccc2N1 (configuration not stated)	102	103	-20	4
Cc1cc(NC(=O)c2cc3c(CO)cnc(C)c3oc2=N)ccc1Br	102	104	-3	1
COc1ccc(CNC(C)C(=O)NCc2ccc3c(c2)OCO3)cc1OC (configuration not stated)	105	109	-4	-11
C=CCNc1nc(C(=O)OC2CCCCC2=O)cs1 (configuration not stated)	109	103	20	3
CC(C)(CC(=O)O)Cc1nc2ccccc2c(=O)[nH]1	103	102	-15	16
Cc1[nH]n(-c2ccccc2)c(=O)c1/C=N/N1CCOCC1	100	101	16	8
Cc1cc(C(=O)COC(=O)C2=COCCO2)c(C)n1-c1ccccc1	105	108	-3	-4
CC(C)(C)C(=O)OCN1N=CN(Cc2ccccc2)C=C1SC#N	107	112	-8	-32
S=C(NC12CC3CC(CC(C3)C1)C2)N1CCOCC1	100	101	-8	-7
Cc1ccc(-c2n[nH]c(=S)n2CC(=O)O)cc1	100	106	-33	-21
Cc1ccc(S(=O)(=O)N(CC(=O)NCc2ccccc2)C(=O)N2CCN(C)CC2)cc1	101	107	-11	6
CCOc1cc(-c2nnc(-c3ccco3)o2)cc(OCC)c1OCC	98	98	i	-3
Cc1nc2sccn2c(=O)c1S(=O)(=O)NCC1CCN(Cc2ccc(Cl)cc2)CC1	100	102	-57	-7
CC(C)c1ccc(N=C=S)cc1	99	104	6	-54
NC(=O)Nc1ccc2[nH]ncc2c1	97	119	-2	-5
CCN1CCN(Cc2cccc3cccnc23)CC1	103	107	-6	.
Cc1ccc(NC(=O)C(c2ccccc2)N2CCCN(S(=O)(=O)c3c(C)noc3C)CC2)cc1 (configuration not stated)	98	104	2	1
CC(C)(C)Nc1nc(Cl)nc(N(C#N)CN2C(=O)c3ccccc3S2(=O)=O)n1	98	99	.	-2
O=C(Nc1ccccc1)Nc1cccc2nsnc12	102	107	-2	-69
Cc1ccc(C)n1-c1ccc(C(=O)Nc2nccs2)cc1	108	109	-48	8
Cc1c(SCCO)c(=O)[nH]c2cc3c(cc12)OCO3	100	105	-294	-10
O=C(O)CCNc1cc(Cl)ccc1Oc1ccc(Cl)cc1	102	100	4	-16
CCSC1=NSC2=NC(=O)/C(=C\c3cccnc3)C(=N)N12	107	119	5	6
Cc1ccc2nc(Cn3cc(S(=O)(=O)N4CCCC4)ccc3=O)cn2c1	96	100	18	-9
Cn1cccc1C1Nc2ccccc2NC2=C1C(=O)CC(C)(C)C2 (configuration not stated)	102	103	-5	-15
Cc1csc(N)c1C#N	97	110	5	-9
CCN1CCN(C(=O)C(C)Sc2nnc(-c3ccncc3)n2-c2ccccc2C)CC1 (configuration not stated)	107	109	0	-43
Cc1ccc(C2C3=C(CC(C)(C)CC3=O)OC3=C2C(=O)CC(C)(C)C3)o1	105	104	-5	-23
O=C1NC(=O)C(CC2CCCN3CCCCC23)C(=O)N1 (configuration not stated)	104	107	.	-88
COC(=O)c1ccc2c(=O)[nH]c(COC(=O)/C=C/c3ccc(S(=O)(=O)NCc4ccco4)cc3)nc2c1	104	112	13	-22
CCN(CC)c1ccc(C=C(C#N)C#N)cc1	124	132	9	-152
CCC(=O)O[C@H]1CCC2C3CCC4=CC(=O)CC[C@]4(C)C3CC[C@@]21C (some centres not stated)	99	98	-11	-12
CCn1c(SCCc2ccccc2)nnc1-c1nnc(SCCc2ccccc2)n1CC	101	101	9	-9
O=C(C1CCCN1S(=O)(=O)c1cccc2nsnc12)N1CCCCCC1 (configuration not stated)	99	105	5	-1
COc1cccc(-c2ccc(SCC(=O)N3CCOCC3)nn2)c1	103	104	2	-24
CC(C)N(Cc1ccccc1)S(=O)(=O)c1ccc2ccccc2c1	107	104	-5	-11
CCCc1cc(N)on1	100	104	-3	-66
COCCCn1c(C)cc(C(=O)COC(=O)C23CC4CC(CC(O)(C4)C2)C3)c1C	104	111	-6	-14
CC(C)c1cc(NC(=O)C(C)(C)C)cc(C(C)C)c1O	100	101	-8	-20
CCOC(=O)c1ccc2c(c1)NC(CC(=O)Nc1ccccc1C)C(=O)N2CC (configuration not stated)	108	127	-84	-17
CCOC(=O)c1cnc(SCC(=O)OCCCn2c(=O)[nH]c3ccccc32)nc1N	103	104	14	-12
CCOc1ccc(-c2cc(C(=O)N3CCN(C(=O)c4ccco4)CC3)[nH]n2)cc1	101	103	-8	5
CN1C(=O)COc2ccc(C(=O)CSc3nnc(-c4ccoc4)c(-c4ccoc4)n3)cc21	96	94	24	-12
CC(=O)N(C(C)=O)c1ccc2c(c1)C(C)(C)C(C)N2C (configuration not stated)	107	118	-3	-22
O=C(O)CNC(=S)N(Cc1ccccc1)Cc1cccs1	103	95	1	-26
NC(=O)CCc1cn(-c2ccccc2)nc1-c1ccccc1	102	105	-35	.
CC1(C(=O)NC2CCCC2)CCC(=O)N1C1CCCCC1 (configuration not stated)	101	103	-2	2
CC1CC(C)(C)Cc2c1sc(NC(=O)c1ccco1)c2C#N (configuration not stated)	101	99	56	0
C=CCN1C(=O)S/C(=C/c2cc(Cl)cc(OC)c2O)C1=O	101	99	-4	-97
N#Cc1ccccc1COC(=O)CNC(=O)c1ccccc1	99	104	22	-16

(continued)
SMILES	PV pol inh	PV pol inh intensity	Mtb MbtI inh	Mtb MenB inh
CCCSc1nnc2n(N)c(=O)c3ccccc3n12	100	103	-3	7
Clc1cccc(-c2nc(NCCN3CCOCC3)nc3c2COc2ccccc2-3)c1	101	101	-36	-2
CCOc1ccc(CCNC(=O)c2cn3c4c(ccc(Cl)c4c2=O)OC(C)C3)cc1 (configuration not stated)	102	105	2	-80
C=CCN(C(=O)CSc1cc(=O)n(C)c2ccccc12)c1ccccc1	104	104	-8	-23
Clc1ccc(C2=NNC(=NCCCN3CCOCC3)SC2)c(Cl)c1	102	103	32	-39
CC(C)C1NC(=O)N(c2ccccc2)C1=O (configuration not stated)	103	109	.	-15
O=C(OC(Cn1cncn1)c1ccc(Cl)cc1)c1ccccc1 (configuration not stated)	103	98	1	.
O=C(Cc1cccs1)N1CCc2ccccc2C1	108	105	.	-9
CC[C@@]1(O)C(=O)OCc2c1cc1n(c2=O)Cc2cc3ccccc3nc2-1	100&102	100&100	i	-18&-8
CC(C)=CC(=O)Nc1ccccc1C(F)(F)F	101	103	-19	-15
CC1=NOC(=O)/C1=C/c1ccc(N(C)C)cc1	102	96	-5	-24
O=c1c(N2CCOCC2)nnc2sc3ccccc3n12	107	116	-9	16

15 successive entries already listed:
SMILES	PV pol inh	PV pol inh intensity	Mtb MbtI inh	Mtb MenB inh
O=C(O)CNC(=S)N(Cc1ccccc1)Cc1cccs1	103	95	1	-26
NC(=O)CCc1cn(-c2ccccc2)nc1-c1ccccc1	102	105	-35	.
CC1(C(=O)NC2CCCC2)CCC(=O)N1C1CCCCC1 (configuration not stated)	101	103	-2	2
CC1CC(C)(C)Cc2c1sc(NC(=O)c1ccco1)c2C#N (configuration not stated)	101	99	56	0
C=CCN1C(=O)S/C(=C/c2cc(Cl)cc(OC)c2O)C1=O	101	99	-4	-97
N#Cc1ccccc1COC(=O)CNC(=O)c1ccccc1	99	104	22	-16
CCCSc1nnc2n(N)c(=O)c3ccccc3n12	100	103	-3	7
Clc1cccc(-c2nc(NCCN3CCOCC3)nc3c2COc2ccccc2-3)c1	101	101	-36	-2
CCOc1ccc(CCNC(=O)c2cn3c4c(ccc(Cl)c4c2=O)OC(C)C3)cc1 (configuration not stated)	102	105	2	-80
C=CCN(C(=O)CSc1cc(=O)n(C)c2ccccc12)c1ccccc1	104	104	-8	-23
Clc1ccc(C2=NNC(=NCCCN3CCOCC3)SC2)c(Cl)c1	102	103	32	-39
CC(C)C1NC(=O)N(c2ccccc2)C1=O (configuration not stated)	103	109	.	-15
O=C(OC(Cn1cncn1)c1ccc(Cl)cc1)c1ccccc1 (configuration not stated)	103	98	1	.
O=C(Cc1cccs1)N1CCc2ccccc2C1	108	105	.	-9
CC[C@@]1(O)C(=O)OCc2c1cc1n(c2=O)Cc2cc3ccccc3nc2-1	100&102	100&100	i	-18&-8

More records follow.
SMILES	PV pol inh	PV pol inh intensity	Mtb MbtI inh	Mtb MenB inh
O=S(=O)(c1ccccc1)N1CCC(c2nc3ccccc3[nH]2)CC1	100	107	-4	7
O=S(=O)(NCc1cccc2ccccc12)c1ccccc1	103	102	.	8
COc1ccc(NC(=O)C(NC(=O)C2CCCCC2)C(C)C)cc1 (configuration not stated)	103	97	4	9
O=C(OCC(=O)N1CCCC1=O)c1ccc2c(c1)OCO2	97	91	-56	-25
COc1ccc(CC(=O)OCC(=O)Nc2ccc(Br)cc2)cc1	104	107	-14	.
CCc1ccc(C2c3c(oc4ccccc4c3=O)C(=O)N2c2ccccn2)cc1 (configuration not stated)	100	99	-12	-17
O=C(NC(c1ccccc1)c1ccccc1)c1ccccc1Cl	103	105	.	-17
O=C(O)c1cc(NC(=O)c2ccc(NC(=O)c3ccco3)cc2)cc(C(=O)O)c1	103	103	26	9
CCOc1ccccc1C(=O)OCC(=O)Nc1cccc(Cl)c1	101	106	3	.
O=C(C1CC1)N1CCN=C1SCc1c(F)cccc1Cl	105	106	-9	-2
O=C(SC1=NCCc2ccccc21)c1ccccc1	103	107	1	-24
O=c1[nH]nc(-c2cc(C(F)(F)F)cc(C(F)(F)F)c2)c2ccccc12	106	101	-6	-26
Cc1ccc2oc(=O)c3cnn(CC(=O)N(Cc4ccco4)C4CCCC(C)C4C)c3c2c1 (configuration not stated)	99	105	-9	-5
CCN(CC)CCNC(=O)c1cc(S(C)(=O)=O)ccc1OC	102&100	103&102	-6&-14	-3&4
O=C(COC(=O)C1CCCCC1)Nc1ccc(Cl)cn1	100	98	0	-8
CC(NS(=O)(=O)c1ccc(Oc2cccc(Cl)c2C#N)cc1)C(C)(C)C (configuration not stated)	108	109	-10	-18
CC1CCC/C(=N/NC(=O)c2c[nH]c3ccccc23)C1 (configuration not stated)	105	106	1	0
O=C(Cn1c(SCC(=O)N2CCc3ccccc32)nc2ccccc21)NC1CC1	102	105	-4	-37
CC(C)N1CCC(NC(=S)NCc2ccccc2)CC1	103	103	6	3
CCN(CC)C(=O)c1cccc(NC(=O)Cc2coc3cc(C)ccc23)c1	107	101	-8	-23
Cc1ccc(S(=O)(=O)N[C@@H](Cc2ccccc2)C(=O)CCl)cc1	102&100	100&99	64*	-14
CC(C)Cn1nc(C(N)=O)c2ccccc2c1=O	100	105	11	5
CC(=O)NC(C(=O)NC1CC1)C(C)C (configuration not stated)	104	94	-1	12
CCC(=O)Nc1ccc(C2=NNC(=NCCN3CCOCC3)SC2)cc1	113	112	38	1
CCOc1ccc(C(=O)N(Cc2ccc(N(C)C)cc2)CC2CCCO2)cc1 (configuration not stated)	100	102	-12	-3
Clc1cnccn1	99	101	-9	1
CCOc1ccc(NC(=O)NCCN2C(C)CCCC2C)cc1 (configuration not stated)	104	106	-7	5
N#Cc1c(=O)c2ccccc2n2ccccc12	101	94	113	-12
O=c1cc(CCl)c2c(ccc3ccccc32)o1	103	107	48	.
CC(C)NC(=O)C1CCN(C(=O)c2ccc(Cl)cc2)CC1	106	112	-4	-10
Cc1ccnc(N2CCC(C(=O)NCCC(C)C)CC2)n1	99	102	28	-69
CC(C)Nc1ccc(Nc2ccccc2)cc1	100	103	47	.
c1c(SSc2cn3c(n2)CCC3)nc2n1CCC2	99	103	93*	-45
CCCn1c(N)c(C(=O)CN(C)CC(=O)Nc2ccc(Cl)cc2)c(=O)[nH]c1=O	.	.	-7	3
Cc1ccc(C)c(OCCCC(C)(C)C(=O)O)c1	100&101	102&102	-10&-6	-2&7
O=C(NC(Nc1ncccn1)C(=O)c1ccccc1)c1ccccc1 (configuration not stated)	101	101	-1	27
COc1cccc(OC)c1OC	97	98	0	-48
CCOC(=O)c1nn(-c2ccccc2)c(=O)c(C#N)c1C	101	102	-6	-4
CC(CO)(CO)NS(=O)(=O)c1ccccc1	107	106	.	-13
Cc1cc(N2CCC(C(O)(c3ccccc3)c3ccccc3)CC2)nc(C)n1	103	104	2	-44
COc1cccc(C(=O)O/N=C(\N)c2ccncc2)c1OC	100	103	1	4
O=S(=O)(Cc1ccc(Cl)cc1)Nc1nc2ccccc2s1	101	102	-3	-21
